From PubChem
H5N1 antiviral – antiviral screen in MDCK cells, H5N1 avian flu | hit rate 0.07% among 96,000 | inhibition, % at 50 µM | cytopathic effect, luminescence, 72 h; stronger effect = higher value; no value below 0 was filed and about half of the inactive calls have no number; reference of the scale not given here; in the data active = inhibition above about 25%
Active calls of the source: *; i = inactive. Only part of the results is shown; rates above refer to the full screens.

molecule	H5N1 antiviral
COc1ccc(OC)c(NC(=O)C2CC(=O)n3ncnc3N2)c1 (configuration not stated)	i
CCCCCCSC1=C(C#N)C(c2ccc(C)o2)CC(=O)N1 (configuration not stated)	i
CCN(CC)S(=O)(=O)c1cccc(C(=O)Nc2nncs2)c1	i
CN(C)/C=C/C(=O)c1nnn(C2CCCCC2)c1NC1CCCCC1	1.6
CC(=O)N1C(=O)N(C)C2C1N(C(C)=O)C(=O)N2C (configuration not stated)	i
Cc1cc(C)nc(SCCS(=O)(=O)Cc2ccccc2)n1	i
CC(C)(C)C(=O)Oc1cc(N)n(S(=O)(=O)c2ccc(F)cc2)n1	2.0
CCOC(=O)Cn1nc(C)n(-c2ccccc2)c1=O	0.1
CCOCCCNC(=O)c1ccc(CS(=O)(=O)Cc2ccc(C)cc2)o1	i
O=C(COc1ccc(-c2nnco2)cc1)NC1CCCc2ccccc21 (configuration not stated)	i
COc1ccc(CNC(=O)c2sc(=S)n(-c3ccc(OC)cc3)c2N)cc1	0.7
O=C(O)CCN1C(=O)/C(=C/c2ccc(-c3nc4ccccc4s3)o2)SC1=S	1.2
CCN1C(=O)/C(=C2/C=Cc3ccccc3N2C)OC1=S	0.8
CC1CN(c2cc(-c3ccccc3)c3ccccc3n2)CC(C)O1 (configuration not stated)	0.1
CN(C)/C=C1\C(=O)Nc2ccccc21	0.0
COc1ccc(OCCOCC(O)CN2CCOCC2)cc1 (configuration not stated)	0.1
COc1ccc(C(=O)C(C)(C)NO)cc1	i
Cc1nc(C)c(C(=O)Nc2ccc(C)c(F)c2)o1	0.7
CCOCc1nnc(NC(=O)COC)s1	0.1
CCOC(=O)C(=O)Nc1ccc(S(=O)(=O)N2CCOCC2)cc1OC	1.0
CCOC(=O)c1cc(CC)sc1NC(=O)c1cc(OCC)c(OCC)c(OCC)c1	i
Cc1ccc2cc(CCNS(=O)(=O)c3ccc(F)cc3)c(=O)[nH]c2c1	0.2
Cn1c(SCC(=O)Nc2ccc(N3CCOCC3)cc2)nnc1-c1ccccc1	1.7
CCOC(=O)N1CCC(NC(=O)c2ccc(OC)c(CN3CC(=O)N4CCCC4C3=O)c2)CC1 (configuration not stated)	i
CCO/C(C)=C1\N=C(c2ccc(Cl)cc2)OC1=O	i

Additional entries follow.
molecule	H5N1 antiviral
O=C(Nc1ccccc1C(=O)Nc1ccc2c(c1)OCO2)c1ccco1	i
COc1ccc(CN(C)C2CCCCC2)cc1	0.6
O=S(=O)(Cc1ccccc1)N1CCCCCC1	0.5
Cc1cc(C(=O)CSc2nnc(-c3ccccc3)o2)c(C)n1CC1COc2ccccc2O1 (configuration not stated)	1.6
CCc1cccc(NC(=O)NC2CCCCC2)c1	0.3
Cc1nc2ccccc2n1CC(=O)NCc1ccccc1	i
O=C(COC(=O)C1=COCCO1)NCCCc1ccccc1	0.7
CNS(=O)(=O)c1cnccc1N1CCN(c2cccc(C)c2)CC1	0.8
Cc1ccc(CCN2CC(C(=O)NCCN3CCCCCC3)CC2=O)cc1 (configuration not stated)	0.1
COc1ccc(CCNC(=O)c2[nH]c(C)c(C(C)=O)c2C)cc1	i
CCCn1c2ccccc2c2nnc(SC(CC)C(=O)Nc3sc4c(c3C#N)CCCC4)nc21 (configuration not stated)	i
O=C(C1CCCCC1)N1CCN(S(=O)(=O)c2ccc(Br)cc2)CC1	5.9
CCOC(=O)CCCNC(=O)CCNC(=O)c1ccc(OC)cc1	i
COc1cccc(NC(=O)CCN2CCN(c3ccccc3F)CC2)c1	i
Cc1nccn1Cc1cccc2ccccc12	i
N/C(=N\OC(=O)c1ccc2c(c1)OCO2)c1ccc(Cl)cc1	i
CN(C)S(=O)(=O)Oc1ccsc1C(=O)Nc1ccc(Cl)cc1	i
CCCSc1nnc(-c2cccc(S(=O)(=O)N(C)C)c2)n1-c1cc(OC)ccc1OC	1.1
CCN1CC2CCCC3(C1)C(=O)NC1(CCCCC1)N=C23 (configuration not stated)	0.6
COc1ccc(-c2nc(C#N)c(NCc3ccccc3Cl)o2)cc1OC	i
CC1CN(C(=O)c2c([N+](=O)[O-])cnn2C)CC(C)O1 (configuration not stated)	0.6
CCOC(=O)CN(C(=O)CSc1nnc(-c2ccc(OC)c(OC)c2)o1)c1ccc(F)cc1	0.2
CCC12CN3CC(CC)(CN(C1)C3c1ccccc1Cl)C2O (configuration not stated)	0.2
CCS(=O)(=O)N1CCCC(C(=O)NCCN(C)Cc2ccccc2)C1 (configuration not stated)	0.6
COc1ccc(CN(C(=O)c2ccco2)c2ccc(C)cc2)cc1OC	i

Among those listed so far, these have an NH in an aromatic ring.
molecule	H5N1 antiviral
Cc1ccc2cc(CCNS(=O)(=O)c3ccc(F)cc3)c(=O)[nH]c2c1	0.2
COc1ccc(CCNC(=O)c2[nH]c(C)c(C(C)=O)c2C)cc1	i

(list continues)
molecule	H5N1 antiviral
CCN(CC)S(=O)(=O)c1ccc2c(c1)c(=O)c(C(=O)N1CCOCC1)cn2C	0.7
CCN(CC)c1cc(C)c2cc(NC(=O)c3ccc(Br)o3)ccc2n1	i
CC1=N/C(=C/c2ccc([N+](=O)[O-])cc2)C(=O)N1c1ccc(Cl)cc1Cl	i
COc1ccccc1N1CCN(S(=O)(=O)/C=C/c2ccccc2)CC1	0.8
Cc1ccc2nc(-c3ccncc3)cc(-c3ccccc3)c2c1	1.5
COc1ccc(/C=N/OCc2nc3c4c(ncn3n2)Oc2ccc3ccccc3c2C4c2ccccc2)cc1 (configuration not stated)	0.3
C/C(=N\NC(=O)c1csc(C)c1C)c1ccc(Cl)s1	i
CCOC(=O)c1ccc(N2C(=O)CC(N3CC=C(c4ccc(F)cc4)CC3)C2=O)cc1 (configuration not stated)	1.4
Clc1ccc(-n2nnnc2CN2CCOCC2)cc1	i
CCC(C)N1C(=O)S/C(=C/c2ccc(Sc3nc4ccccc4[nH]3)o2)C1=O (configuration not stated)	2.5
COc1cc2c(cc1OC)C(C(=O)NCC1COc3ccccc3O1)C(c1cccnc1)N(C)C2=O (configuration not stated)	0.3
COc1cc(/C=C/C(=O)Nc2ccccc2C(F)(F)F)cc(OC)c1OC	i
CCNC(=O)NC(=O)C(C)Oc1ccc(C(=O)OC)cc1 (configuration not stated)	0.2
O=C(Nc1cccc(C(F)(F)F)c1)C1CCCCC1	0.7
Cc1cc(NC(=O)Nc2cccc(C(F)(F)F)c2)no1	0.9
COC(=O)C1=C(C)NC(C)=C(C(=O)OC)C1C(=O)OCCN1C(=O)c2ccccc2C1=O	0.1
Cn1nnnc1SCC(=O)Nc1ccccc1[N+](=O)[O-]	0.9
O=c1[nH]c(CO)nc2c1oc1ccccc12	i
CC1=C(C(=O)OC2CCCC2)C(c2ccc(C)o2)C2=C(CC(c3cccs3)CC2=O)N1 (configuration not stated)	2.0
Cn1c(CS(=O)Cc2c(Cl)cccc2Cl)nnc1SCc1c(Cl)cccc1Cl (configuration not stated)	i
C/C=C/c1ccc(OCCCn2cncn2)c(OC)c1	0.3
O=C(C=C1SCCS1)/C=C/c1ccco1	1.0
COCCNC(=O)C(c1ccco1)N(C(=O)Cn1nnc2ccccc21)c1cc(C)ccc1C (configuration not stated)	0.7
CCOc1ccc(C2C(C#N)=C(N)SC(N)=C2C#N)c(OCC)c1	i
C=CCN1CCN(Cc2cnc(Cl)s2)CC1	0.7

Next records
Structure | H5N1 antiviral
CCCCSc1nc(SCC(=O)NCc2ccco2)c2c3c(sc2n1)COC(C)(CC)C3 (configuration not stated) | 1.4
CC(C)(C)NC(=O)C(=O)N/N=C/c1ccc(Br)cc1 | i
CC(C)(C)OC(=O)N1CC=C2C(C#N)=C(N)C(C#N)(C#N)[C@H](c3cccnc3)[C@H]2C1 | 2.0
CCC(=O)Nc1cc(-c2nnc(OC)c3ccccc23)ccc1N1CCOCC1 | 1.0
CC(C)(C)NC(=O)CSc1nnc(Cc2ccc3c(c2)OCO3)n1C1CCCCC1 | i
Cc1ccc(S(=O)(=O)N2CCN(C(=O)CSc3nc4ccccc4c(=O)[nH]3)CC2)c(C)c1 | 0.4
Cc1ccc(/C=N/NC(=O)CSc2nc3ccccc3n2C)s1 | i
CN1C(=O)c2ccccc2C(C(=O)O)C1c1cn(C)c2ccccc12 (configuration not stated) | i
CCNc1nc(NC(C)C)nc(OCC)n1 | i
Cc1cc(Nc2ccccc2)c2c([N+](=O)[O-])c(C)cc(C)c2n1 | 0.8

Following part.
Structure | H5N1 antiviral
CC(NC(=O)C12CC3CC(C1)CC(n1cncn1)(C3)C2)C12CC3CC(CC(C3)C1)C2 (configuration not stated) | 2.2
COC(=O)c1cc(OC)c(OC)cc1NC(=O)c1c(-c2ccccc2)noc1C | i
CN1C(=O)C(=Cc2ccccc2Oc2ccc(Cl)cc2)C(=O)N(C)C1=O | i
O=C(NNC(=O)C(c1ccccc1)c1ccccc1)c1cccs1 | 1.0
COCCOC(=O)C1=C(C)N(Cc2ccccc2)C(=O)NC1c1cccc(OC)c1OC (configuration not stated) | 0.2
Cc1ccc(C)c(S(=O)(=O)Nc2ccccc2C(=O)Nc2cc(C)on2)c1 | i
Cn1c(SCC(N)=O)nnc1-c1ccccc1 | 0.5
O=C(O)c1ccc(Cl)c2c1C1C=CCC1C(c1ccccn1)N2 (configuration not stated) | 2.9
CCCOc1ccc(CC(CC(=O)O)(C(=O)O)C(=O)O)cc1 | 0.1
O=C(NCc1ccncc1)c1cccc(F)c1 | 0.2

More entries follow.
Structure | H5N1 antiviral
Cc1ccc(-c2nc(CSCC(=O)N3CCN(C(=O)c4ccco4)CC3)c(C)o2)cc1 | 0.9
Cc1ccc(NC(=O)Cn2cccc2)c(C)c1 | i
O=C(Nc1ccc(Br)cc1)c1ccco1 | i
CCCC(=O)Nc1ccc(Br)cn1 | 0.6
O=C(COC(=O)CCC(=O)c1ccc(Cl)cc1)NCC1CCCO1 (configuration not stated) | i
Cc1ccc(-c2cc(C(=O)NCc3cccs3)no2)cc1 | i
Cc1c(C(=O)N2CCCc3ccccc32)oc2ccc(S(=O)(=O)N3CCOCC3)cc12 | 1.0
O=C(NC1CCCCC1)C1CC(=O)N(c2ccc(Cl)cc2)C1 (configuration not stated) | i
COCCCNC(=O)C1CC(=O)N(c2ccc(C)cc2)C1 (configuration not stated) | 1.8
CCn1c(C(O)c2ccccc2)nc2ccccc21 (configuration not stated) | 0.8

(listing goes on)
Structure | H5N1 antiviral
CCc1cccc(NS(=O)(=O)c2c(C)n[nH]c2C)c1 | 0.4
NC(=O)C1(NC(=O)[C@@H]2CC3(CC(c4cccc(NC(=O)[C@@H]5CCC(=O)N5)c4)=NO3)CN2C(=O)Cc2ccc(C(F)(F)F)cc2)CC1 (some centres not stated) | 0.1
O=C(c1ccc2ccccc2c1)N1CCN(c2ccccc2)CC1 | i
O=C(O)c1cc(S(=O)(=O)N2CCCC2)ccc1Br | i
CC(C)CN(C(=O)COC(=O)c1cc2ccccc2oc1=O)C1CCS(=O)(=O)C1 (configuration not stated) | i
COc1ccc(C(OC(=O)c2cccs2)C(=O)NCC2CCCO2)cc1 (configuration not stated) | 0.3
C=C(C)CN=c1scc(C)n1/N=C/c1ccco1 | 1.1
COc1ccc(-c2cc(C(F)(F)F)c3c(=O)n(-c4ccccc4)[nH]c3n2)cc1 | i
COc1ccc(N2C(=O)c3cccc4cccc(c34)C2=O)nn1 | 4.6
O=C(CNC(=O)c1cccs1)NCCN1CCN(c2ccccc2F)CC1 | 1.0

More compounds follow.
Structure | H5N1 antiviral
CN(Cc1ccccc1)C(=O)c1ccc2c(c1)OCCO2 | i
CC1CCCC(NC(=O)COC(=O)c2cc(S(=O)(=O)N3CCCCC3)ccc2N2CCOCC2)C1C (configuration not stated) | i
C=CCCCCCCCCC(=O)NNC1=CC(=O)CC(C)(C)C1 | i
CCCC(c1nnnn1Cc1ccco1)N1CCN(C(=O)c2ccco2)CC1 (configuration not stated) | 0.8
C=C(C)c1cccc(C(C)(C)NC(=O)NCCCN2CCCC2=O)c1 | 0.1
COc1ccccc1-c1noc(-c2ccccc2C(=O)Nc2ccccc2)n1 | i
CN(NC(=O)c1cccc(Cl)c1)c1nc(-c2ccccc2)nnc1C(F)(F)F | 0.1
COC(=O)c1ccc(S(=O)(=O)NCCSc2nnc3c4ccccc4n(C)c3n2)cc1 | 1.3
c1ccc(C(Cc2nc(-c3ccccn3)no2)c2ccccc2)cc1 | i
Clc1ccc(CSc2ncccn2)cc1 | i

Further compounds.
Structure | H5N1 antiviral
O=C(CCN1C(=O)C2CC=C(Cl)CC2C1=O)NCc1ccco1 (configuration not stated) | 1.6
Cc1nc(Sc2nnnn2-c2ccccc2)c(C#N)c(C)c1C | 2.6
Cc1ccccc1NC(=O)CSc1nnnn1C | i
COc1cccc(OCc2nnc(SCC(=O)OC3CCCCC3)n2C)c1 | i
CCc1c(C)sc2nc(C(C)C)nc(SCC(=O)N3CCc4ccccc4C3)c12 | 2.0
Cc1ccc(C)n1-c1ccc(-n2cnnn2)cc1 | 2.5
CC(C)Cc1nnc(NC(=O)c2ccncc2)s1 | i
NC(=O)CSc1nnc(-c2cnccn2)n1-c1ccccc1 | 0.8
Cc1cc(N2CCOCC2)nc2ccc(NC(=O)CCC(=O)N3CCCCC3)cc12 | 0.8
CC(C)C(=O)Nc1nnc(SCC(=O)N2c3ccccc3CC2C)s1 (configuration not stated) | i

Given as labelled records: part of the list above.
molecule: CC(C)Cc1nnc(NC(=O)c2ccncc2)s1
  H5N1 antiviral: i
molecule: Cc1cc(N2CCOCC2)nc2ccc(NC(=O)CCC(=O)N3CCCCC3)cc12
  H5N1 antiviral: 0.8
molecule: CCc1c(C)sc2nc(C(C)C)nc(SCC(=O)N3CCc4ccccc4C3)c12
  H5N1 antiviral: 2.0
molecule: COc1cccc(OCc2nnc(SCC(=O)OC3CCCCC3)n2C)c1
  H5N1 antiviral: i

A stretch from the list above:
Structure | H5N1 antiviral
O=C(CCN1C(=O)C2CC=C(Cl)CC2C1=O)NCc1ccco1 (configuration not stated) | 1.6
Cc1nc(Sc2nnnn2-c2ccccc2)c(C#N)c(C)c1C | 2.6
Cc1ccccc1NC(=O)CSc1nnnn1C | i
COc1cccc(OCc2nnc(SCC(=O)OC3CCCCC3)n2C)c1 | i
CCc1c(C)sc2nc(C(C)C)nc(SCC(=O)N3CCc4ccccc4C3)c12 | 2.0
Cc1ccc(C)n1-c1ccc(-n2cnnn2)cc1 | 2.5
